HIV Env fusion: inhibitors of HIV Env-mediated cell fusion; HeLa-JRFL Env/CEM21 cell fusion, luciferase; inhibition, % at 12.3 µM; hit rate 1.1% among 360,000;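 active = mean replicate inhibition score of at least 50 and every replicate individually at or above 50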;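 note: 0% = plate neutral controls and 100% = maraviroc near 300 nM; one replicate is shown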
UUG fidelity: yeast start codon fidelity modulation | S. cerevisiae UUG-firefly luciferase reporter, luminescence/redox ratio | activity score, % at 18.7 µM | hit rate 0.13% among 350,000 | AID 602363;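 active = replicate mean at a twofold rise or more, about +100% in these data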;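 note: firefly luciferase made from a UUG start codon reports start codon fidelity; reporter light over untreated wells divided by growth signal over untreated wells; some hits fall short of that in this replicate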
Starred values were filed as active, the others as inactive; [ ] = dose if it differs, or a comment.

SMILES	HIV Env fusion	UUG fidelity
C[C@@H]1CN([C@H](C)CO)C(=O)c2cccc(NC(=O)Nc3ccc(C(F)(F)F)cc3)c2O[C@H]1CN(C)C(=O)Nc1ccc(C(F)(F)F)cc1	33[16.7 µM]	-19
C[C@H](CO)N1C[C@H](C)[C@@H](CN(C)C)OCCCC[C@H](C)Oc2ccc(NC(=O)C3CCCCC3)cc2C1=O	-10[16.7 µM]	11
C[C@H](CO)N1C[C@H](C)[C@@H](CN(C)C(=O)CN(C)C)Oc2cc(-c3ccc(C#N)cc3)ccc2S1(=O)=O	3[16.7 µM]	9
CC(C)NC(=O)N(C)C[C@@H]1Oc2cc(C#CC(C)(C)O)ccc2S(=O)(=O)N([C@H](C)CO)C[C@H]1C	-6[16.7 µM]	-2
O=C(Nc1cccc(Cl)c1)N[C@H]1CC[C@@H](CCNC(=O)C2CC2)O[C@H]1CO	-11[16.7 µM]	-3
COc1ccc(CN(C)C[C@H]2OCCCC[C@H](C)Oc3ccc(N(C)C)cc3C(=O)N([C@H](C)CO)C[C@@H]2C)cc1	-7[16.7 µM]	-9
C[C@@H]1CN([C@H](C)CO)C(=O)c2cccc(NC(=O)Nc3cccc4ccccc34)c2O[C@@H]1CN(C)Cc1ccccc1	-16[16.7 µM]	-17
CCCNC(=O)N1[C@H](CO)[C@H](c2ccc(-c3cccc(OC)c3)cc2)[C@@H]1C#N	33[16.7 µM]	2
C[C@H]1CN([C@@H](C)CO)C(=O)c2cc(C#Cc3ccccc3F)cnc2O[C@@H]1CN(C)C(=O)Cc1cccnc1	10[16.7 µM]	-18
O=C(NCC[C@@H]1CC[C@@H](NS(=O)(=O)c2cccc(F)c2)[C@@H](CO)O1)c1cnccn1	-5[16.7 µM]	-9
C[C@@H]1CCCCO[C@H](CN(C)Cc2ccc(C(F)(F)F)cc2)[C@@H](C)CN([C@H](C)CO)C(=O)c2cc(NC(=O)Cc3ccccc3)ccc2O1	12[16.7 µM]	-7
COc1ccc(S(=O)(=O)N[C@@H]2CC[C@H](CCn3cc(-c4ccccc4F)nn3)O[C@H]2CO)cc1	13[16.7 µM]	14
C[C@H](CO)N1C[C@H](C)[C@@H](CN(C)C(=O)Nc2ccc3c(c2)OCO3)Oc2c(NC(=O)C3CCOCC3)cccc2C1=O	12[16.7 µM]	12
O=C(Nc1cccc(Cl)c1)N[C@@H]1CC[C@H](CCNC(=O)C2CCOCC2)O[C@@H]1CO	15[16.7 µM]	2
COc1ccc(C#Cc2ccc3c(c2)[C@]2(C(=O)N3)[C@H](c3ccc(O)cc3)N3[C@H](c4ccccc4)[C@H](c4ccccc4)OC(=O)[C@H]3[C@@H]2C(=O)NC[C@H](O)c2ccccc2)cc1	25[16.7 µM]	-2
CC(C)NC(=O)N[C@H]1CC[C@@H](CC(=O)NCCCN(C)C)O[C@H]1CO	38[16.7 µM]	-9
C[C@@H]1CN([C@@H](C)CO)S(=O)(=O)c2ccc(C#Cc3ccccc3)cc2O[C@@H]1CN(C)C(=O)Cc1ccccn1	-110[16.7 µM]	1
COC(=O)C(CC#Cc1ccc2c(c1)[C@]1(C(=O)N2)[C@H](c2ccccc2OCCO)N2[C@H](c3ccccc3)[C@H](c3ccccc3)OC(=O)[C@H]2[C@@H]1C(N)=O)C(=O)OC	21[16.7 µM]	-16
C[C@@H]1CN([C@@H](C)CO)C(=O)c2cc(C#CCN(C)C)cnc2O[C@@H]1CN(C)Cc1ccccc1F	0[16.7 µM]	-9
C[C@@H]1CN([C@H](C)CO)C(=O)c2cc(-c3ccccc3F)cnc2O[C@H]1CN(C)C(=O)C1CC1	-15[16.7 µM]	-7
COc1ccc(NC(=O)Nc2cccc3c2O[C@@H](CN(C)Cc2ccc(Cl)c(Cl)c2)[C@@H](C)CN([C@@H](C)CO)C3=O)cc1	-116[16.7 µM]	-3
C[C@@H]1CN([C@H](C)CO)C(=O)c2cccc(NC(=O)C3CCCCC3)c2O[C@@H]1CN(C)S(C)(=O)=O	25[16.7 µM]	4
Cc1ccc(S(=O)(=O)Nc2ccc3c(c2)C(=O)N([C@@H](C)CO)C[C@H](C)[C@@H](CN(C)C(=O)Nc2ccc(F)cc2)OCCCC[C@H](C)O3)cc1	42[16.7 µM]	-10
O=C(N[C@@H]1CC[C@H](CCNS(=O)(=O)c2ccc(F)cc2)O[C@H]1CO)C1CC1	-6[16.7 µM]	29
C[C@@H]1CN([C@@H](C)CO)C(=O)Cc2cc(NS(=O)(=O)c3cccs3)ccc2O[C@H]1CN(C)Cc1ccc2c(c1)OCO2	-12[16.7 µM]	-7

4 records drawn at random from those above, as already listed:
SMILES	HIV Env fusion	UUG fidelity
C[C@@H]1CN([C@@H](C)CO)S(=O)(=O)c2ccc(C#Cc3ccccc3)cc2O[C@@H]1CN(C)C(=O)Cc1ccccn1	-110[16.7 µM]	1
O=C(N[C@@H]1CC[C@H](CCNS(=O)(=O)c2ccc(F)cc2)O[C@H]1CO)C1CC1	-6[16.7 µM]	29
O=C(Nc1cccc(Cl)c1)N[C@H]1CC[C@@H](CCNC(=O)C2CC2)O[C@H]1CO	-11[16.7 µM]	-3
C[C@@H]1CN([C@H](C)CO)C(=O)c2cccc(NC(=O)Nc3cccc4ccccc34)c2O[C@@H]1CN(C)Cc1ccccc1	-16[16.7 µM]	-17

Returning to the listing, starting three compounds before the break.
SMILES	HIV Env fusion	UUG fidelity
Cc1ccc(S(=O)(=O)Nc2ccc3c(c2)C(=O)N([C@@H](C)CO)C[C@H](C)[C@@H](CN(C)C(=O)Nc2ccc(F)cc2)OCCCC[C@H](C)O3)cc1	42[16.7 µM]	-10
O=C(N[C@@H]1CC[C@H](CCNS(=O)(=O)c2ccc(F)cc2)O[C@H]1CO)C1CC1	-6[16.7 µM]	29
C[C@@H]1CN([C@@H](C)CO)C(=O)Cc2cc(NS(=O)(=O)c3cccs3)ccc2O[C@H]1CN(C)Cc1ccc2c(c1)OCO2	-12[16.7 µM]	-7
C[C@H](CO)N1C[C@H](C)[C@H](CN(C)S(C)(=O)=O)OCCCC[C@H](C)Oc2ccc(NC(=O)c3ccccc3)cc2C1=O	-22[16.7 µM]	-8
C[C@@H]1CCCCO[C@H](CN(C)Cc2ccc(C(=O)O)cc2)[C@H](C)CN([C@@H](C)CO)C(=O)c2cc(NS(=O)(=O)c3cn(C)cn3)ccc2O1	-11[16.7 µM]	1
CCCNC(=O)N[C@H]1C=C[C@@H](CC(=O)NC2CCC2)O[C@H]1CO	1[16.7 µM]	-10
CCCN(C)C[C@H]1OCCCC[C@@H](C)Oc2ccc(NC(=O)c3ccncc3)cc2C(=O)N([C@H](C)CO)C[C@@H]1C	6[16.7 µM]	-4
C[C@@H]1CN([C@H](C)CO)S(=O)(=O)c2ccc(C3=CCCC3)cc2O[C@H]1CN(C)Cc1ccccc1	33[16.7 µM]	4
C[C@H]1CN([C@@H](C)CO)C(=O)c2cccc(NC(=O)C3CC3)c2O[C@H]1CN(C)S(=O)(=O)c1cn(C)cn1	-9[16.7 µM]	-3
C[C@H](CO)N1C[C@H](C)[C@H](CN(C)Cc2ccccc2)Oc2ccc(NC(=O)Cc3cn(C)c4ccccc34)cc2C1=O	12[16.7 µM]	7
C[C@@H]1CN([C@@H](C)CO)C(=O)c2cc(NC(=O)Nc3ccccc3)ccc2O[C@@H]1CN(C)S(=O)(=O)c1cn(C)cn1	29[16.7 µM]	19
C[C@H]1CN([C@@H](C)CO)S(=O)(=O)c2ccc(C3=CCCC3)cc2O[C@@H]1CN(C)C(=O)c1ccncc1	1[16.7 µM]	-13
O=C(C[C@H]1C=C[C@@H](NC(=O)C2CC2)[C@H](CO)O1)Nc1ccccc1	7[16.7 µM]	-22
C[C@H](CO)N1C[C@H](C)[C@H](CN(C)CC2CCCCC2)Oc2c(NC(=O)Nc3ccccc3)cccc2C1=O	-3[16.7 µM]	2
C[C@@H]1CCCCO[C@@H](CN(C)C(=O)Nc2ccc(F)cc2)[C@H](C)CN([C@@H](C)CO)C(=O)c2cc(NS(=O)(=O)c3cccs3)ccc2O1	-25[16.7 µM]	-11
COc1ccc(NC(=O)Nc2ccc3c(c2)C(=O)N([C@H](C)CO)C[C@@H](C)[C@H](CN(C)S(=O)(=O)c2ccc(C)cc2)O3)cc1	17[16.7 µM]	1
C[C@@H]1CCCCO[C@H](CN(C)C(=O)NC2CCCCC2)[C@@H](C)CN([C@@H](C)CO)C(=O)c2cc(N(C)C)ccc2O1	11[16.7 µM]	21
C[C@@H]1CN([C@@H](C)CO)S(=O)(=O)c2ccc(C#C[C@@H](C)O)cc2O[C@@H]1CN(C)C(=O)C1CC1	-16[16.7 µM]	3
C[C@@H]1CN([C@H](C)CO)C(=O)c2cccc(NC(=O)C3CCOCC3)c2O[C@H]1CN(C)C(=O)Nc1ccc(C(F)(F)F)cc1	-7[16.7 µM]	1
C[C@@H]1CCCCO[C@@H](CN(C)C(=O)Nc2cccc3ccccc23)[C@H](C)CN([C@@H](C)CO)C(=O)c2cc(NC(=O)c3ccccc3)ccc2O1	28[16.7 µM]	-17
COc1ccc(CN(C)C[C@H]2Oc3c(NS(=O)(=O)c4ccccc4)cccc3C(=O)N([C@@H](C)CO)C[C@@H]2C)cc1	-14[16.7 µM]	1
C[C@@H]1CN([C@@H](C)CO)C(=O)c2cc(NC(=O)Nc3ccc4c(c3)OCO4)ccc2O[C@@H](C)CCCCO[C@@H]1CN(C)C(=O)NC1CCCCC1	-5[16.7 µM]	-2
C[C@H]1CN([C@@H](C)CO)C(=O)c2cccc(NC(=O)Nc3cccc4ccccc34)c2O[C@@H]1CN(C)C(=O)Nc1cccc2ccccc12	-24[16.7 µM]	2
O=C(Nc1ccc2c(c1)[C@H]1C[C@H](CC(=O)N3CCOCC3)O[C@H](CO)[C@H]1O2)c1cccnc1	6[16.7 µM]	-7
COc1cccc(-c2cnc3c(c2)C(=O)N([C@@H](C)CO)C[C@H](C)[C@@H](CN(C)Cc2ccccc2)O3)c1	18[16.7 µM]	1
COc1ccc(NC(=O)N[C@H]2CC[C@H](CCn3cc(-c4ccccc4F)nn3)O[C@@H]2CO)cc1	5[16.7 µM]	6
C[C@H](O)C#Cc1cnc2c(c1)C(=O)N([C@H](C)CO)C[C@@H](C)[C@H](CN(C)C(=O)Nc1ccc(F)cc1)O2	-1[16.7 µM]	-4
C[C@@H]1CN([C@@H](C)CO)C(=O)c2cc(C3=CCCC3)cnc2O[C@H]1CN(C)Cc1ccccc1C(=O)O	-9[16.7 µM]	8

(list continues)
SMILES	HIV Env fusion	UUG fidelity
Cc1noc(C)c1NC(=O)Nc1ccc2c(c1)CC(=O)N([C@H](C)CO)C[C@@H](C)[C@H](CN(C)CC1CC1)O2	2[16.7 µM]	-14
COc1cccc(C(=O)Nc2ccc3c(c2)OC[C@@H](C)NC[C@@H](C)[C@H](OC)CN(C)C3=O)c1	-13[16.7 µM]	15
C[C@@H]1CN([C@H](C)CO)S(=O)(=O)c2ccc(-c3cccnc3)cc2O[C@H]1CN(C)Cc1cccnc1	2[16.7 µM]	-14
O=C(C[C@H]1CC[C@H](NC(=O)C2CCOCC2)[C@@H](CO)O1)NCc1ccccc1Cl	1[16.7 µM]	-1
CO[C@@H]1CN(C)C(=O)c2cc(NC(=O)Nc3c(C)noc3C)ccc2OC[C@@H](C)NC[C@@H]1C	-2[16.7 µM]	-13
CCC(=O)N1C[C@H](C)[C@H](OC)CN(C)C(=O)c2cc(NS(=O)(=O)CC)ccc2OC[C@H]1C	6[16.7 µM]	0
CCOc1ccc(S(=O)(=O)Nc2cccc(C(=O)N3CCN(c4ccccc4O)CC3)c2)cc1	0	-3
CNC[C@@H]1Oc2ccc(NC(=O)Cc3cn(C)c4ccccc34)cc2CC(=O)N([C@H](C)CO)C[C@@H]1C	1[16.7 µM]	6
C[C@H](CO)N1C[C@H](C)[C@@H](CN(C)C(=O)c2ccccc2)OCCCC[C@H](C)Oc2ccc(NS(=O)(=O)c3cccs3)cc2C1=O	-94[16.7 µM]	5
COC(=O)[C@H](Cc1ccccc1)N1CC2=C[C@H](C3CC3)n3c(=O)n(C)c(=O)n3[C@@H]2[C@H]1[C@H](O)Cc1ccccc1	-13[16.7 µM]	-10
C[C@@H]1CN([C@H](C)CO)C(=O)c2cccc(NC(=O)Nc3ccc4c(c3)OCO4)c2O[C@@H]1CN(C)S(=O)(=O)c1ccc(F)cc1	6[16.7 µM]	3
C[C@H](CO)N1C[C@H](C)[C@@H](CN(C)S(=O)(=O)c2ccc(F)cc2)Oc2ccc(NC(=O)Nc3ccccc3)cc2CC1=O	-13[16.7 µM]	2
CCC(=O)N(C)C[C@H]1Oc2cc(-c3ccncc3)ccc2S(=O)(=O)N([C@@H](C)CO)C[C@@H]1C	-7[16.7 µM]	6
COc1ccc(NC(=O)N(C)C[C@@H]2Oc3ccc(NC(=O)CCC(F)(F)F)cc3C(=O)N([C@H](C)CO)C[C@H]2C)cc1	11[16.7 µM]	-3
Cc1noc(C)c1NC(=O)N(C)C[C@H]1Oc2c(NC(=O)Nc3ccccc3)cccc2C(=O)N([C@@H](C)CO)C[C@H]1C	-17[16.7 µM]	-3
COc1ccc(S(=O)(=O)N[C@@H]2C=C[C@@H](CC(=O)NCc3ccccc3F)O[C@@H]2CO)cc1	-16[16.7 µM]	-28
CNC[C@H]1Oc2ccc(N(C)C)cc2CC(=O)N([C@H](C)CO)C[C@H]1C	-2[16.7 µM]	2
C[C@@H]1CCCCO[C@@H](CN(C)Cc2ccc(Cl)c(Cl)c2)[C@@H](C)CN([C@@H](C)CO)C(=O)c2cc(NC(=O)Nc3ccc(C(F)(F)F)cc3)ccc2O1	22[16.7 µM]	-2
C[C@H]1CCCCO[C@H](CN(C)S(=O)(=O)c2cccs2)[C@@H](C)CN([C@@H](C)CO)C(=O)c2cc(NC(=O)c3ccccc3)ccc2O1	4[16.7 µM]	-4
C[C@@H]1CN([C@H](C)CO)S(=O)(=O)c2ccc(C#CC3CC3)cc2O[C@H]1CN(C)Cc1ccccc1	4[16.7 µM]	11

Only part of the results is shown; the hit share may differ from the screen's.
